Compound activity: PubChem BioAssay, ICCB-Longwood Screening Facility, Harvard Medical School
Vaccinia pol inh – vaccinia E9 polymerase processive synthesis inhibitors, primary screen, biochemical, absorbance. actives 0.94% (n = 46,000). in vitro processive DNA synthesis, absorbance read-out; active compounds read low; some inactives read as strong as hits. normalized absorbance, % (concentration not given with the values);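 active means replicate mean up to 90% and picked by the depositor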;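 further: 100% = median of the test wells of a plate; 100 nL library stock went into each well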
Active calls of the source: *; & = joins results of further samples. Not all compounds are listed; count on the stated rates, not on these rows.

SMILES	Vaccinia pol inh
C[C@]12CCC(=O)C=C1CCC1C2CC[C@@]2(C)C1CC[C@@]2(O)CC#N (stereo partly specified)	101.2
COc1ccccc1CNC(=O)CSc1ccccc1	95.5
c1ccc(CN2CN(Cc3ccccc3)c3nc4ccccc4n3C2)cc1	98.6
CNC(=O)c1cc2c(=O)n3cccc(C)c3nc2n1C	105.1
COC(=O)C1=C(Nc2ccc(F)cc2F)CSC1	106.3
COc1ccc2oc(=O)c(-c3nnc(NCc4ccc5c(c4)OCO5)s3)cc2c1	98.1
O=C(c1cccs1)N1CCN(c2ccccc2)CC1	87.9
CC(OC(=O)c1ccc(NC(=O)Cc2ccccc2)cc1)C(=O)c1ccccc1 (stereo unspecified)	102.8
Cc1ccccc1C1CC(=O)NC(SCC(=O)Nc2ccccc2)=C1C#N (stereo unspecified)	98.5
O=c1oc2ccccc2c2c1nc(C(F)(F)F)n2-c1ccccc1	99.0
O=C1C(O)=C(O)C(=O)C(O)=C1O	101.1
O=C(c1ccccc1)N(C(=O)c1ccccc1)C(=O)c1ccccc1	110.5
Cc1ccc2nc(Sc3cccc(Cl)c3)[nH]c2c1	99.4
Cc1c(C(=O)N(C)C)sc2c1c(=O)n(-c1ccccc1C(F)(F)F)c(=O)n2CC(N)=O	98.5
Cc1cc(C(=O)NN)n(C(C)(C)C)n1	100.0
NCC(O)c1ccc(O)cc1 (stereo unspecified)	101.1
COc1ccc(/C=N/n2cnc3c([nH]c4ccc(F)cc43)c2=O)cc1	99.7
O=C(NC1CCCC1)c1ccc(CS(=O)(=O)c2c(Cl)cccc2Cl)o1	99.8
CCOC(=O)c1c(C)cc(C)[nH]c1=O	100.1
O=C(NCCc1ccc(Cl)cc1)c1ccc2c(=O)n(-c3ccccc3)c(=O)[nH]c2c1	94.9
Cc1nc2ccccn2c1-c1ccnc(SCC(=O)Nc2ccc(C(C)C)cc2)n1	101.2
CS(=O)(=O)N(Cc1cc2ccccc2[nH]c1=O)c1ccccc1	96.3
N#CC(CCN1CCN(c2ccccc2)CC1)(c1ccccc1)c1ccccc1	100.4
CC12CCC(C(=O)N3CCCc4ccccc43)(CC1=O)C2(C)C (stereo unspecified)	98.8
O=C(CN1C(=O)S/C(=C\c2ccc(Cl)cc2)C1=O)Nc1cccnc1	99.4
CCOC(=O)Nc1cccc2nsnc12	100.5
Cc1[nH]nc2c1C(c1ccc3ccccc3c1)CC(=O)N2 (stereo unspecified)	94.4
Cn1ccnc1SCC(=O)Nc1ccc(S(N)(=O)=O)cc1	100.3
CN(C)c1ccc(/C=N/c2nnc(NC(=O)c3ccccc3Br)s2)cc1	105.5
O=C(Nc1nc2c(F)cccc2s1)c1cccs1	100.3

By substructure, the entries above containing a thiophene ring, fused or not (3)
SMILES	Vaccinia pol inh
O=C(c1cccs1)N1CCN(c2ccccc2)CC1	87.9
Cc1c(C(=O)N(C)C)sc2c1c(=O)n(-c1ccccc1C(F)(F)F)c(=O)n2CC(N)=O	98.5
O=C(Nc1nc2c(F)cccc2s1)c1cccs1	100.3

An excerpt from above in order of heavy-atom count, ascending:
SMILES	Vaccinia pol inh
O=C(Nc1nc2c(F)cccc2s1)c1cccs1	100.3
Cc1ccccc1C1CC(=O)NC(SCC(=O)Nc2ccccc2)=C1C#N (stereo unspecified)	98.5
COc1ccc2oc(=O)c(-c3nnc(NCc4ccc5c(c4)OCO5)s3)cc2c1	98.1
Cc1nc2ccccn2c1-c1ccnc(SCC(=O)Nc2ccc(C(C)C)cc2)n1	101.2

(further entries)
SMILES	Vaccinia pol inh
Nc1nc2ccc(C(=O)OC3CCCCC3)cc2s1	88.3
CC1CC(C)CN(CCCNC(=O)Cn2c3ccccc3c3cn[nH]c(=O)c32)C1 (stereo unspecified)	97.7
CCOc1ccc(OCCSc2nnnn2-c2ccccc2)cc1	100.0
COC(=O)C(Cc1ccccc1)NC(=O)c1cc(-c2ccc3c(c2)OCCO3)oc1C (stereo unspecified)	106.4
Cc1ccccc1N(C)S(=O)(=O)c1ccc2[nH]cc(C(=O)NCCC(C)C)c(=O)c2c1	105.7
COCCn1c(CCC(=O)NCc2ccc(OC)cc2)nc2cccnc21	99.3
CCc1ccc(C2C(C#N)=C(N)SC(N)=C2C#N)cc1	85.8
O=C1CC(c2ccco2)Cc2nc(NCc3ccccc3)ncc21 (stereo unspecified)	99.4
CC(CC(=O)NCc1ccccc1)CC1=NS(=O)(=O)c2ccccc2N1 (stereo unspecified)	90.5
Cc1nc2ccccn2c1-c1ccnn1C(=O)c1ccno1	100.0
COc1ccc(/C=C/C(=O)NCCCN2CCCCCC2)cc1	103.4
CCOC(=O)N1CCC(NC(=O)CS(=O)(=O)Cc2nc(-c3ccc(C)cc3)oc2C)CC1	103.9
Cc1ccc(Nc2ccc3ncnc4c3c2C(=O)c2ccccc2-4)cc1	99.0
CCC1(CC)C(=O)C=CNC1=O	100.2&91.4
O=C1CN(C(=O)CCC(=O)c2cccs2)c2ccccc2N1	95.6

Compounds shown so far that contain a Cl atom (4):
SMILES	Vaccinia pol inh
Cc1ccc2nc(Sc3cccc(Cl)c3)[nH]c2c1	99.4
O=C(NC1CCCC1)c1ccc(CS(=O)(=O)c2c(Cl)cccc2Cl)o1	99.8
O=C(NCCc1ccc(Cl)cc1)c1ccc2c(=O)n(-c3ccccc3)c(=O)[nH]c2c1	94.9
O=C(CN1C(=O)S/C(=C\c2ccc(Cl)cc2)C1=O)Nc1cccnc1	99.4

Next section:
SMILES	Vaccinia pol inh
CC(C)CNc1ncnc2nc[nH]c12	99.7
CCN1CCSc2ccc(C(=O)NCc3ccco3)cc21	96.9
O=C(CSc1cccc[n+]1[O-])c1ccc2ccccc2c1	90.5
O=C(NC1CCCc2ccccc21)c1ccccc1 (stereo unspecified)	105.9
O=C(COC(=O)c1ccncc1)NCc1ccccc1	107.9
Cc1cc(C)c2c(C(=O)O)cc(=O)[nH]c2c1	99.5
CNC(=O)c1sc2nc(C)cc(C)c2c1-n1cccc1	97.8
Cc1cc(C)n(-c2ccc(-n3cccc3/C=C(/C#N)S(=O)(=O)c3ccccc3)cc2)n1	97.1
Cc1c(Cl)cccc1NC(=S)NCC(c1ccccc1)c1c[nH]c2ccccc12 (stereo unspecified)	98.7
Cc1cc(=O)oc2cc(OCC(=O)O)ccc12	99.9
c1ccc(C[n+]2cccc(-c3ccccc3)c2)cc1	99.0
Cn1ncc2c1ncn1nc(-c3ccccc3)nc21	96.7
OC(COc1ccccc1)CN1CCN(Cc2ccc(Cl)cc2)CC1 (stereo unspecified)	92.3
COc1ccc2nc(SCC(O)c3ccccc3)[nH]c2c1 (stereo unspecified)	102.4
S=C(NCCN1CCOCC1)Nc1ccc(Nc2ccccc2)cc1	100.0
CCCc1c(O)nc(SCc2ccccc2)[nH]c1=O	59.0
CCN(CC)c1ccc(CNC(CC(=O)O)c2c[nH]c3ccccc23)cc1 (stereo unspecified)	104.0
CCc1c(C)sc(NC(=O)c2noc3c2CC(C(C)(C)C)CC3)c1C#N (stereo unspecified)	99.9
Cc1cc(C(=O)NC2CCCCC2)no1	100.3
Cc1ccc2ncc(-c3ccc(Cl)c(C)c3)nc2c1	97.0
C=CCn1c(OCc2ccccc2)n[nH]c1=S	100.1
O=C(COC(=O)Cc1ccc(Br)cc1)NCC1CCCCC1	101.3
Cc1ccc(S(=O)(=O)c2ccc(NN)cc2)cc1	95.0
c1ccc(-n2nnnc2Oc2cccc3cccnc23)cc1	103.6
N#C/C(=C\Nc1cccc(Cl)c1)c1nc(-c2ccc3c(c2)OCO3)cs1	101.0
O=C(O)CSc1nc2cccnc2s1	105.0
Cc1cccc(CSc2nnc(-c3c[nH]c4ccccc34)n2C)c1	105.7
CSC1=NSC2=NC(=O)/C(=C\c3cccs3)C(=N)N12	107.5
O=c1[nH]c(O)c(C=Nc2ccc(F)c(Cl)c2)c(=O)[nH]1	96.6
CC1=CC(C)(C)Nc2ccc(OCC(=O)N3c4ccccc4Sc4ccccc43)cc21	99.6
N=C(N)c1ccc(C(N)=O)cc1	96.6
COc1ccc(-c2c(C)oc3ccc(Cl)cc23)cc1	99.4
CCC(C)c1ccccc1OCC(O)CN1CCN(Cc2ccc3c(c2)OCO3)CC1 (stereo unspecified)	101.1
NC(=O)c1oc2ccccc2c1NC(=O)c1cccs1	104.8
CC(C(=O)N1CCN(c2ccccn2)CC1)n1ncn2cccc2c1=O (stereo unspecified)	95.6
CCc1ccc(OCC(=O)N2CCOCC2)cc1	106.3
OCCOC12CC3CC(CC(C3)C1)C2	93.9
O=C1OC(C2OC(=O)c3ccccc32)c2ccccc21 (stereo unspecified)	101.0
O=C(Nc1cccc(N2CCCC2=O)c1)c1ccccc1	96.2
O=C(O)CNC(=O)c1cccs1	101.7
Clc1ccc(Oc2cnns2)c2ccccc12	110.1
O=C1c2ccccc2-c2onc3c(Cl)cc(NC4CCCCC4)c1c23	99.2
Cc1ccc(NC(=O)c2ccc(F)cc2)c(C)c1	100.1
O=S(=O)(/N=C/c1c(O)ccc2ccccc12)c1ccccc1	98.2
O=C(ON1C(=O)CCC1=O)c1ccccc1	99.8
CC(C)c1ccc(NC2(C#N)C(=O)Nc3ccccc32)cc1 (stereo unspecified)	104.9
CCc1ccc(NC(=O)c2cnn3ccccc23)cc1	99.3
C=CCNC(=O)c1scc2c1OCCO2	99.9
COC(=O)C1=C(C)N=C2SCCC(=O)N2C1c1ccccc1 (stereo unspecified)	98.8
Cc1cc(C)nc(SCC(=O)Nc2c(C)n[nH]c2C)n1	93.9
CCOc1ccc(NC(=O)CSC2=NCCS2)cc1	93.4
OC1(c2cccs2)CN(c2ccccc2)C2=[N+]1CCCS2 (stereo unspecified)	102.2
CCOC(=O)c1ccc2nc(NC(=O)C(C)C)sc2c1	91.5
CSc1cccc(NC(=S)Nc2cccc(SC)c2)c1	98.6
COc1ccc(C2=NNC(=S)C3=CNc4ccccc4N32)cc1	100.1
OCCCn1c(-c2ccccc2)cn2c(-c3ccccc3)c(-c3ccccc3)nc12	100.3
O=c1c2ccccc2nnn1CN1CCCCC1	99.9
O=C(COC(=O)C1CCC1)Nc1cccc(Cl)c1Cl	91.3
O=C(NC1CCCCNC1=O)c1cn(S(=O)(=O)c2ccccc2)c2ccccc12 (stereo unspecified)	99.1
CCN1/C(=c2/sc3nc4ccccc4n3c2=O)Sc2ccc(OC)cc21	99.2

Remaining list, next part:
SMILES	Vaccinia pol inh
COc1cccc(C2C(C(=O)O)c3ccccc3C(=O)N2C)c1 (stereo unspecified)	93.6
Cc1ccc(NC(=O)NCc2noc3ccccc23)nc1	105.2
CCN1CCN(c2cc(C)c3cc(NC(=S)N(C)Cc4ccccc4)ccc3n2)CC1	79.3
Nc1ccc(S(=O)(=O)c2ccc(N)cc2)cc1	100.2
CCC(=O)N1CCc2cc(Br)cc(S(=O)(=O)N3CCCCC3CC)c21 (stereo unspecified)	106.4
O=C(CSc1nc2ccccc2nc1N1CCOCC1)NCc1ccc2c(c1)OCO2	98.8
O=C(c1ccc(-n2nc(C(F)(F)F)c3c2CCCC3)cc1)N1CCOCC1	114.2
CC(C)(C)NC1=CC(=O)OC12CCCCC2	100.2
O=C(Nc1ccncc1NC(=O)c1ccccc1)c1ccccc1	99.4
Cc1cc(-c2ccccc2)nnc1-c1ccccc1	102.2
CCCN1CCC(NCc2ccco2)CC1	92.4
Cc1ccc(-c2c(C(=O)O)oc(=O)c3ccccc23)cc1	93.5
Cc1cc(-c2noc(-c3ccccc3C)n2)c2ccccc2n1	93.0
Cc1ccc(C)n1-c1nn(S(=O)(=O)c2cccc(C(F)(F)F)c2)c2cccc(F)c12	99.6
Cc1ccc(COc2ccc(I)cc2)cc1	107.3
C=C1C(=O)O[C@@H]2[C@H]3O[C@]3(C)CC/C=C(\C)CC[C@@H]12	98.7
COc1ccc(CCNC(=O)CSC2=Nc3ccccc3C3=NC(C(C)C)C(=O)N23)cc1OC (stereo unspecified)	100.0
Cn1nc(C(C)(C)C)cc1C(=O)NC1CCCCNC1=O (stereo unspecified)	88.2
Cc1cc(C)n(-c2nc3cc(Cl)ccc3nc2NCCN2CCOCC2)n1	103.1
CN1CCOc2cc(S(=O)(=O)NCCc3ccc(Cl)cc3)ccc21	95.6
CCn1cc(SCC(=O)Nc2nccs2)c2ccccc21	100.3
CCOc1ccc(C(F)(F)F)cc1NC(C)=O	99.2
CCCn1c(=O)c(C(=O)NCc2ccccc2)c(O)c2ccccc21	101.3
CCOc1nc(NCCC2=CCCCC2)nc(OCC)n1	101.0
N=c1ccccn1CC(O)COc1ccccc1 (stereo unspecified)	99.2
Cc1nc(CC#N)cs1	106.8
CN(CCc1ccccn1)C(=O)Nc1ccccc1	105.6
Cc1ccc(C(=O)Cc2nc3ncccc3[nH]c2=O)cc1	99.6
O=C(O)CCNC(=O)c1ccc2c(c1)OCCO2	101.7
CCOCc1cnc(C)nc1NCC(=O)c1c(C)[nH]c2cc(C)ccc12	99.9
CC1=CC(C)C2C(=O)N(c3ccc(C(=O)O)cc3)C(=O)C2C1 (stereo unspecified)	101.4
O=C(Cn1cc(C(=O)c2ccco2)c2ccccc21)NCC1CCCO1 (stereo unspecified)	100.0
Cc1c(C(=O)Nc2nc3ccc(Br)cc3s2)sc2nc[nH]c(=O)c12	100.1
O=C(CSc1nc2ccccc2s1)NCCCN1CCOCC1	100.5
Cc1nn2c3c(cnc2c1-c1ccccc1)C(=O)CC(c1ccc(C(C)C)cc1)C3 (stereo unspecified)	100.1
CCOC(=O)c1[nH]c(C)c(C(=O)N2CCOCC2)c1C	93.6
Cc1ccc(C)n1-c1ccccc1C1C=NNC1=O (stereo unspecified)	98.2
O=C(CCn1c(=O)oc2ccccc21)Nc1ccccc1	99.6
CC1CC(NC(=S)NC2CC3C=CC2C3)CC(C)(C)C1 (stereo unspecified)	101.9
CN(C)C(=S)NC(Cc1ccccc1)c1ccccc1 (stereo unspecified)	99.5
C=CCc1ccccc1OCC(O)CN1CCN(c2ccc(OC)cc2)CC1 (stereo unspecified)	97.7
c1nncn1N=C1CCCCCC1	96.9
Cc1ccc(S(=O)(=O)c2nc(C)oc2N(C)C)cc1	102.0
O=C(OCC(=O)N1CCc2ccccc21)c1sc2ccccc2c1Cl	109.4
CCn1ccc(C(C)C)c1-c1ccccc1	97.7
CCOC(=O)c1sc(N)c(C(=O)OCC)c1C	100.4
